Sa RN4220 lethal: growth inhibition of S. aureus RN4220, primary screen, OD600. hit rate 0.33% among 330,000. inhibition, % (concentration not given with the values). 16 h. AID 1259311, 2017;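 active = z-score of -3 or lower and OD600 up to 0.18 on both plates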;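 note: plate controls were untreated cells for no effect and reference antibiotic for full effect; stock transfer was 100 nL into about 80 µL; one replicate is shown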
Sa ugtP lethal: growth inhibition of ugtP-null S. aureus, primary screen, RN4220 ugtP deletion, OD600 | 16 h; some inactives read as strong as hits | growth inhibition, % (concentration not given with the values) | hit rate 0.54% among 330,000 | AID 1259309, 2017;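 active = z-score under -3 and OD600 up to 0.15 on both plates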;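 note: plate controls were untreated wells for no effect and antibiotic for full effect; wells of about 80 µL received 100 nL stock; the first replicate is given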
Mtb hypoxia inh: PubChem AID 1159583; M. tuberculosis hypoxia-regulated fluorescent reporter, fluorescence; fluorescence inhibition, % (test concentration not listed); hit rate 0.1% among 300,000;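 active = 35 to 45% if threefold the growth effect, above 45% if 1.5-fold the growth effect; inactive = the rest, general growth blockers included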;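 note: wells of about 50 µL received 100 nL stock; 0% = vehicle wells and 100% = reference inhibitor wells; whole bacteria with a GFP reporter of the hypoxia response; strong numbers were not always called active; many hits fall short of the cut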
BJeLR viability: MLPCN primary cell-based screen for lethality selective to Ras in HRASV12 cells. BJeLR (HRASV12) viability, CellTiter-Glo ATP luminescence, 48 h; reference of the scale not given here. inhibition, % (test concentration not listed). hit rate 0.17% among 300,000;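 active = replicate mean above 50%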;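 note: 50 nL library stock added to about 25 µL; numbers are from one replicate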
Autofluor counter: counter-screen for toxin protease inhibitors: compound fluorescence | compound autofluorescence counterscreen, microsphere flow cytometry; active compounds read high | fluorescence intensity (test concentration not listed) | hit rate 3.1% among 360,000 | AID 624483;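 active = at least 3 SD above the mean of all compounds, about 16000 in these data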;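 note: 100 nL of 1 mM stock went into each well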
PrP UTR inh: inhibition of PrP 5' UTR reporter expression; inhibition, % (test concentration not listed); cell-based PrP 5' UTR mRNA reporter, plate reader; hit rate 0.35% among 340,000;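 active = every replicate at 50% or more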;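 note: 0 = median of the neutral control wells; tested in H4 reporter cells; numbers are from one replicate; inactives centre near -14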
Mtb hypoxia inh growth: also measured in Mtb hypoxia inh; calls as there; growth inhibition, %; measured here: M. tuberculosis growth (absorbance);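 0% = vehicle and 100% = reference antibiotic; read after six days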
Starred values were filed as active, the others as inactive; . = not tested or not shown. Compounds were not picked by outcome. About 4% of those tested had a hit in this group.

SMILES	Sa RN4220 lethal	Sa ugtP lethal	Mtb hypoxia inh	Mtb hypoxia inh growth	BJeLR viability	Autofluor counter	PrP UTR inh
N=C1C(c2nc3ccccc3[nH]2)=C(O)CN1c1ccc(F)cc1	5.5	-2	6	5	3	3504	-27
COc1ccc(NC(=O)CC(C)=NNC(=O)CCc2ccccc2)c(OC)c1	3.0	2	13	-3	.	.	.
Cc1ccc(-c2noc(-c3ccccc3F)n2)cc1	-5.7	25	5	5	5	2495	-61
O=C(N=C1SC2CS(=O)(=O)CC2N1c1ccc(Cl)c(Cl)c1)C1CCCO1 (stereo not drawn)	1.2	0	4	5	1	5205	-18
CSc1nc(C)cc(SCCO)n1	4.4	4	2	-6	14	9668	-4
CCc1cccc(NS(=O)(=O)c2ccc3c(c2)NC(=O)CC(=O)N3)c1	6.7	9	5	9	3	4228	-19
O=C(NCCc1ccc(Cl)cc1)c1ncn[nH]1	0.1	10	.	.	18	4133	-13
Cc1cccc(NC(=S)NC2CCCC2)n1	4.2	-2	2	1	3	4701	-16
COC(=O)COc1cccc2c(=O)n(CC(=O)NCc3ccccc3)ccc12	1.8	7	-8	5	19	4017	-43
CCS(=O)(=O)N1Cc2ccccc2CC1C(=O)Nc1nnc(SCc2ccc(C#N)cc2)s1 (stereo not drawn)	2.0	-10	-2	-4	-3	1995	-13
COc1ccc(N2C(=O)CN=C2Nc2nc(C)cc(C)n2)cc1	5.2	-3	-1	6	5	4222	-10
C=CCN1C(=O)NC2(CCCCC2)C1=O	3.5	-1	-72	5	-7	4219	0
Cc1ccccc1Nc1c(-c2ccc(N3CCOCC3)cc2)nc2cnccn12	6.1	18	2	10	-4	5435	-40
CCCCCOC(=O)C1[C@H]2C(=O)N(Cc3cccs3)C[C@]23C=C[C@H]1O3 (stereo partly drawn)	3.7	8	6	7	-3	10728	.
NS(=O)(=O)c1ccc(NC(=O)CSC2CCCCC2)cc1	-1.4	7	-7	-1	0	9047	-23
COc1ccc(NC(=O)CC2C(=O)N(c3ccc(OC)cc3)C(=O)N2CCc2cccs2)cc1 (stereo not drawn)	4.1	-4	-2	1	0	9750	0
Cc1oc(C(=O)O)cc1COc1ccccc1Cl	2.0	2	.	.	-15	3319	4
N#Cc1c(Sc2ncc(C(F)(F)F)cc2Cl)nsc1C/C=N\OCc1c(F)cccc1Cl	.	.	.	.	-5	3266	-10
Cc1cccc(C)c1NC(=O)CSc1nnc(-c2ccccc2)n1Cc1ccc2c(c1)OCO2	-0.4	5	15	11	2	7958	-23
CCOC(=O)CCC(NC(=O)c1ccc(NCN2C(=O)c3ccccc3C2=O)cc1)C(=O)OCC (stereo not drawn)	2.8	-3	.	.	0	3644	-2
O=C(Sc1ccc(Cl)cc1)c1ccccn1	-1.0	84*	10	6	1	5887	-28
COc1ccc(CCN2CN(S(=O)(=O)c3ccccc3)c3nc4ccccc4nc32)cc1OC	4.9	3	1	2	-3	2150	-25
Cc1cc(N2C(=O)C3C4CCC(C4)C3C2=O)no1 (stereo not drawn)	2.3	8	6	-6	-5	3613	2
O=C(OCC(=O)N1CCN(C(=O)COC(=O)c2ccc(O)cc2O)CC1)c1ccc(O)cc1O	-0.2	0	2	3	6	.	-8
O=C(NNC(=O)c1ccccc1O)c1ccc(Br)cc1	2.3	-2	2	-2	7	4059	-14
CCC(C)NC(=O)Nc1ccc(Br)cc1 (stereo not drawn)	6.0	7	2	4	-3	2256	-30
CC(=O)N(C(C)=O)c1c(C#N)c(C)n(-c2ccccc2)c1C(=O)c1ccccc1	1.6	10	.	.	-2	2555	-19
O=C(O)CCc1ncc(C(F)(F)F)cc1Cl	-3.5	1	.	.	4	4180	-10
O=C(NC1CCCC1)C1CCCN1C(=O)Nc1ccc(Cl)cc1 (stereo not drawn)	-3.6	-5	-7	-5	0	3996	-4
CCC(C)NC(=O)N[C@@H](CCSC)C(=O)OC (stereo partly drawn)	1.7	-3	11	5	-1	10858	-33
CC(C)CC(NC(=O)c1nc[nH]c1C(=O)NCc1ccc(CNC(=O)OC(C)(C)C)cc1)C(=O)OC(C)(C)C (stereo not drawn)	2.9	-7	-1	7	.	.	.
O=C(OCc1ccc(F)cc1)c1cc2ccccc2cc1O	5.9	13	2	3	12	3634	-16
Cc1cc(-c2ccccc2)nc(Oc2ccc(C(C)(C)C)cc2)c1S(C)(=O)=O	-0.4	9	.	.	6	2159	0
COc1ccc(N2CCN(CCNC(=O)Nc3ccc(Cl)cc3)CC2)cc1	1.4	10	3	4	7	7574	-18
COc1ccc(N2CCN(CCCn3c(=S)[nH]c4ncccc4c3=O)CC2)cc1	0.7	-2	5	6	32	9012	-24
COc1ccc(C(C)=O)cc1COC(=O)c1ccc2ccccc2n1	5.9	2	2	-3	5	2560	-14
CC(C)OC(=O)c1ccccc1C(=O)c1ccc(N)c([N+](=O)[O-])c1	3.0	0	0	3	0	4295	-54
C[C@H](NC(=O)c1ccco1)C(=O)NCc1cccs1	7.3	6	11	7	.	5067	.
O=C(NCc1ccccc1Cl)C1CCN(S(=O)(=O)c2cccc3nonc23)CC1	-4.7	-3	2	11	-4	3548	-4
CC1(C)NC(=O)N(CCCCOc2ccc(Cl)cc2C=O)C1=O	6.1	0	-3	5	0	4473	-1

Reprinted at random: six records from the list
SMILES	Sa RN4220 lethal	Sa ugtP lethal	Mtb hypoxia inh	Mtb hypoxia inh growth	BJeLR viability	Autofluor counter	PrP UTR inh
COc1ccc(NC(=O)CC(C)=NNC(=O)CCc2ccccc2)c(OC)c1	3.0	2	13	-3	.	.	.
Cc1cccc(C)c1NC(=O)CSc1nnc(-c2ccccc2)n1Cc1ccc2c(c1)OCO2	-0.4	5	15	11	2	7958	-23
CC(C)OC(=O)c1ccccc1C(=O)c1ccc(N)c([N+](=O)[O-])c1	3.0	0	0	3	0	4295	-54
Cc1ccc(-c2noc(-c3ccccc3F)n2)cc1	-5.7	25	5	5	5	2495	-61
CCOC(=O)CCC(NC(=O)c1ccc(NCN2C(=O)c3ccccc3C2=O)cc1)C(=O)OCC (stereo not drawn)	2.8	-3	.	.	0	3644	-2
COc1ccc(CCN2CN(S(=O)(=O)c3ccccc3)c3nc4ccccc4nc32)cc1OC	4.9	3	1	2	-3	2150	-25

Carrying on:
SMILES	Sa RN4220 lethal	Sa ugtP lethal	Mtb hypoxia inh	Mtb hypoxia inh growth	BJeLR viability	Autofluor counter	PrP UTR inh
COc1ccc(CNC(=O)CN(Cc2ccc(C)cc2)C(=O)c2csnn2)cc1	-2.5	6	-4	-3	-7	3727	-13
Cc1ccc(/C=N/NC(=O)CSc2nc3ccccc3o2)cc1	.	.	.	.	13	2308	-44
Clc1cccc(Cl)c1CN1CCN(c2ccccc2)CC1	2.8	25	-3	-9	9	10889	-23
CCN(C(=O)c1cccc(Br)c1)C1CCS(=O)(=O)C1 (stereo not drawn)	-1.5	-2	2	4	2	6359	-11
C#CCNC(=O)C1=C[C@H](c2ccc3c(c2)OCO3)C[C@H](OCc2ccc(CO)cc2)O1	.	.	.	.	0	3810	10
CC(C)c1ccccc1NC(=S)NCC1(N(C)C)CCCCC1	2.1	1	12	3	-10	6103	-21
CCN(CC(=O)Nc1ccc(NC(C)=O)cc1)C(=O)c1ccc(S(=O)(=O)N2CCCC2)cc1	0.3	-1	-5	-8	.	2927	4
Fc1ccc(N=c2ssnc2Cl)c(F)c1	18	7	17	8	4	4454	-15
O=C(NCCC1CCCCN1S(=O)(=O)c1ccc(F)cc1)C(=O)Nc1ccccc1F (stereo not drawn)	3.9	0	2	1	4	5543	-13
CC(=NNC(=O)CSCc1ccc(Cl)cc1)c1ccc2c(c1)OCCO2	0.3	12	7	-7	.	.	.
Cc1c(C(=O)NCCCN2CCOCC2)sc2nc(-c3ccccc3)cn12	11	14	6	10	-12	.	.
CN1CC=C2C(C#N)=C(N)C(C#N)(C#N)[C@H](c3cccs3)[C@H]2C1	.	.	.	.	-2	6886	0
O=C(NCCCn1ccnc1)c1ccc2ccccc2c1	-0.4	1	10	3	4	5785	-19
Cc1nnc(SCC(=O)c2cc(C)n(-c3ccc4c(c3)OCO4)c2C)s1	2.7	-8	12	9	1	6259	-42
S=c1[nH]nc(-c2cccnc2)n1/N=C/c1ccc(Br)s1	.	.	.	.	11	7393	-22
O=C(CCn1cnnn1)Nc1ccccc1	10	4	5	17	-3	3910	-3
Nc1ncnc2c1cnn2C1CC(O)C(CO)O1 (stereo not drawn)	6.5	7	10	10	.	3627	-5
Cn1c(=O)c2c(nc(Br)n2CCCc2ccccc2)n(C)c1=O	-0.9	6	.	.	2	3678	-7
CCOC(=O)C1CCCN(C(=O)c2ccccc2NS(=O)(=O)c2ccc(F)cc2)C1 (stereo not drawn)	5.5	5	-3	0	.	4900	-20
CC1CC1C(=O)OCC(=O)Nc1ccc(Cl)cn1 (stereo not drawn)	2.5	2	4	5	.	4203	-4
O=C(COC(=O)c1cc2ccccc2cc1O)NC1CCCCC1	7.1	4	-1	-6	.	5797	-25
O=C(COCc1nc2ccccc2c(=O)[nH]1)NC1CCCC1	4.6	13	6	-1	0	8161	-11
CN(C(=S)NC1CCCCC1)C1(c2ccccc2Cl)CCCCC1=O (stereo not drawn)	3.2	4	6	7	-5	2604	-21
CS(=O)(=O)N1CCC(C(=O)Nc2ccc(OCc3ccccc3)cc2)CC1	2.7	-3	-3	-2	-18	11002	-63
Cc1cc(C)c(-c2c(N)cc(Br)cc2Br)c(N)c1	-12	-31	4	9	.	3574	-6
Cc1ccccc1CNC(=O)CCNS(=O)(=O)c1ccc(OC(F)(F)F)cc1	6.6	4	16	7	.	.	-19
Cc1ccsc1/C=N/NC(=O)CNC(=O)c1ccc(S(=O)(=O)N2CCOCC2)cc1	.	.	.	.	0	2594	-7
CCOC(=O)CC1CCCCN1Cc1cn[nH]c1-c1ccc(F)cc1F (stereo not drawn)	4.1	9	9	11	7	4910	-11
CCOC(=O)CC1C(=O)NCCN1C(=O)c1c(F)cccc1F (stereo not drawn)	6.6	-7	1	-5	-11	2393	-10
CO/N=C/C(C#N)=C/c1cc(C(=O)c2ccccc2)cn1C	.	.	.	.	7	4900	-25
COc1cccc(-n2c(-c3ccccc3)c[nH]c2=S)c1	2.9	3	2	-5	-1	4305	4
COc1ccc(C(=O)Nc2ccc(Nc3ccccc3)cc2)cc1[N+](=O)[O-]	11	7	6	4	-2	3877	-22
COC(=O)C1C(O)=CC(=O)CC1C (stereo not drawn)	4.3	0	-6	-9	-3	3325	-10
Cc1ccc(NC(=O)Cn2nc(C(=O)O)c3ccccc3c2=O)c([N+](=O)[O-])c1	1.3	1	5	13	-7	5656	-6
Cc1cccc(CCNC(=O)CCS(=O)(=O)c2ccc(Br)cc2)c1	.	.	.	.	-8	2049	-21
O=C(/C=C/c1cccc([N+](=O)[O-])c1)NC(=S)Nc1cccc(NC(=O)c2ccccc2Cl)c1	-6.0	-13	6	4	7	2085	-14
Cc1cc(Cl)ccc1OCC(=O)OCC(=O)NC1CCS(=O)(=O)C1 (stereo not drawn)	3.4	5	10	-2	.	7836	-26
CCOC(=O)C1=C(C)OC(N)=C(C#N)C1c1cc(Cl)c(OCC(N)=O)c(OC)c1 (stereo not drawn)	10	-2	.	.	3	4306	-5
CCOCCCNC(=O)c1oc2ccc3c(c2c1C)C(O)CC(C)(C)O3 (stereo not drawn)	4.0	3	-10	10	10	3429	-22
CCc1ccc(-c2nn(Cc3ccccc3)cc2C(=O)NCC2CCCO2)cc1 (stereo not drawn)	3.4	16	10	5	.	8416	-21
CN(Cc1ccccc1)C(=O)CCC1CCN(C(=O)CCC(F)(F)F)CC1	2.2	12	14	4	-3	3354	-20
COc1ccc(NS(=O)(=O)c2cc(C)ccc2OC)cc1OC	1.9	5	.	.	7	4894	1
O=C(O)C[C@H]1c2cc(C(F)(F)F)ccc2S(=O)(=O)N1C1CCCCC1	.	.	.	.	4	3110	-10
CCCC1(C)NC(=O)c2ccccc2O1 (stereo not drawn)	7.1	2	-1	-2	-12	3975	-25
CCN(CC)CCCNc1nc(-c2ccccc2)nc2ccccc12	2.1	13	3	8	11	7362	-28
CC(C)c1ccc2oc(=O)cc(CN3CCCCC3)c2c1	1.4	13	4	1	2	3876	-2
CCOC(=O)CSc1nc2sc3c(c2c(=O)n1-c1ccc(OC)cc1)CCN(C)C3	1.3	12	-2	8	1	4383	-43
Cc1nnc(SCC(=O)NN=Cc2ccc(-c3ccc(C)c(Cl)c3)o2)s1	0.3	-18	4	10	.	.	.

Screening results deposited in PubChem BioAssay by several laboratories.
